Screening results: PubChem BioAssay, several laboratories
HIV Env fusion: blocks HIV Env-driven cell-cell fusion. HeLa-JRFL Env/CEM21 cell fusion, luciferase. inhibition, % at 12.3 µM. 1.1% of 360,000 active;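 active = mean replicate inhibition score of at least 50 and every replicate individually at or above 50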;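 note: 0% = plate neutral controls and 100% = maraviroc near 300 nM; one replicate is shown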
Yeast UUG start: modulators of start codon recognition fidelity in yeast | S. cerevisiae UUG-firefly luciferase reporter, luminescence/redox ratio | activity score, % at 18.7 µM | 0.13% of 350,000 active | AID 602363;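 active = replicate mean at a twofold rise or more, about +100% in these data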;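 note: firefly luciferase made from a UUG start codon reports start codon fidelity; reporter light over untreated wells divided by growth signal over untreated wells; some hits fall short of that in this replicate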
MT1-MMP act inh: blocks activation of human MT1-MMP. HT1080 RFP-PRO-GFP cells, GFP/RFP ratio fluorescence, overnight; percent of plate control window, DMSO zero. GFP/RFP ratio change, % at 20 µM. 0.061% of 360,000 active;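 active = GFP/RFP ratio change of at least 30% with cell ATP level not reduced by more than half and red fluorescence within 50% of control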; note: strong numbers were not always called active
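Read-out: GFP/RFP fluorescence ratio; Test system: RFP-PRO-GFP reporter HT1080 cells; Compound dosing: single-point 20 µM compound, 1% DMSO; Times: overnight compound exposure at 37 °C.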
Rce1 inh: blocks yeast Ras-converting enzyme. 0.27% of 290,000 active. AID 2563. Q03530. yeast membranes, quenched prenylated peptide cleavage fluorescence. calls only;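 active = fall in fluorescence gain of 50% or more versus controls, with final raw signal at or below 3038400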;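 note: plate controls were neutral control wells for no effect and wells lacking membranes for full effect; tested at 10 µM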
Target sequence (Q03530 whole entry, looked up): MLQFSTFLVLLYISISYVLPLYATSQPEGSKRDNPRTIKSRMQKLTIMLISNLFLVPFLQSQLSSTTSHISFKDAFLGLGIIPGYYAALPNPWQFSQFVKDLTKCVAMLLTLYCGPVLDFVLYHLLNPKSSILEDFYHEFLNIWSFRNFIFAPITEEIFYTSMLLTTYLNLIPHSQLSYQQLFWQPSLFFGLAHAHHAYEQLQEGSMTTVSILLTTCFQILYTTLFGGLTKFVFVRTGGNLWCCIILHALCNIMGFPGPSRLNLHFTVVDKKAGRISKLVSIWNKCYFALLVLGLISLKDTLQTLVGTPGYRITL
PABP FP inh: blocks human PABP binding to poly(A) RNA. P11940. fluorescence polarization. inhibition, % at 35 µM. 1% of 290,000 active. AID 2014;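 active = 50% or more with normal probe brightness, or confirmed in later tests; about a fifth of its hits are not listed in these tables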;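 note: calls also rest on retests at 20 µM and on dose response follow-up; controls were probe without protein and protein plus probe with vehicle; some compounds called inactive have numbers as strong as hits; many hits fall short of the cut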
eIF4H FP inh: inhibitors of RNA binding by human eIF4H. Q15056. eIF4H fluorescence polarization binding assay. inhibition, % at 35 µM. 0.94% of 290,000 active;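 active = 50% or more with normal probe brightness, or confirmed in later tests; about a fifth of its hits are not listed in these tables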;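 note: calls also rest on retests at 20 µM and on dose response follow-up; 0% = protein and probe with vehicle and 100% = probe without protein; strong numbers were not always called active; many hits fall short of the cut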
CSC inhib: blocks cancer stem cells | inhibition, % at 7.5 µM | 1.1% of 300,000 active | cancer stem cell-like cells viability, luminescence;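 active = mean at 75% or more and at least half the replicates too; tested in HMLE shEcad cells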;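 note: 0% = median of negative and 100% = median of positive control wells; the first replicate is given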
eIF4H FP inh retest: second read-out of eIF4H FP inh, no call of its own (marks repeat the call); inhibition, %; compound at 20 µM; confirmation average;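 mean of two retest wells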
PABP FP inh retest: further read-out of PABP FP inh, marked with its call; inhibition, %; compound at 20 µM; confirmation repeats;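 mean of two retest wells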
MT1-MMP act inh RFP: recorded beside MT1-MMP act inh, whose call it bears; RFP signal change, %; measured here: RFP expression control read;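 0 = vehicle wells; hits needed this value within 50% of zero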
Numbers without * were called inactive; i = inactive; nt = no result given.

SMILES | HIV Env fusion | Yeast UUG start | MT1-MMP act inh | MT1-MMP act inh RFP | Rce1 inh | PABP FP inh | eIF4H FP inh | CSC inhib | others
CSc1ncccc1C(=O)OCC(=O)N(C)C | 11 | nt | 3 | 1 | i | 2 | -14 | 4
O=C(CSc1nnc(C2COc3ccccc3O2)o1)N1CCCC1 (configuration not stated) | 8 | -7 | -3 | 3 | i | 6 | 6 | -26
CC1=NN(C(=O)COc2ccc(C)c(C)c2)C(O)(c2ccc(Cl)cc2)C1 (configuration not stated) | -17 | nt | nt | nt | i | -4 | -7 | 3
COc1ccc(C(=O)N=C2SC3CS(=O)(=O)CC3N2c2ccccc2)cc1OC (configuration not stated) | -2 | -23 | -3 | -3 | i | 0 | 4 | 4
COC(=O)[C@@H](NC(=O)Nc1ccc(OC(F)(F)F)cc1)C(C)C | nt | -4 | 1 | -3 | i | 1 | -5 | 2
COc1ccc(OCC(O)CNS(=O)(=O)c2cccc(Cl)c2)cc1 (configuration not stated) | 17 | -16 | -1 | -2 | i | -7 | -1 | 2
COc1cc(NC(=O)NCc2ccco2)ccc1-c1ccc(NC(=O)NCc2ccco2)cc1OC | -50 | -5 | 9 | 5 | nt | nt | nt | nt
c1ccc(Sc2ccncc2)cc1 | 9 | -9 | 1 | -2 | nt | nt | nt | nt
O=c1c2c3c(sc2ncn1/N=C/c1cccnc1)CCCC3 | -1 | -14 | -4 | 1 | i | 0 | -8 | -13
CC1CCCCC12NC(=O)N(CC(=O)N1CCN(S(=O)(=O)Cc3ccccc3)CC1)C2=O (configuration not stated) | nt | -2 | -3 | 3 | nt | nt | nt | 8
CN(C(=O)/C=C/c1ccccc1)C1CCCCC1 | -65 | -18 | 2 | 3 | i | nt | nt | -4
O=c1cc(CN2CCN(S(=O)(=O)c3ccc4ccccc4c3)CC2)nc2sccn12 | 8 | nt | -4 | -1 | i | 2 | 20 | -5
O=C(Cc1c(F)cccc1Cl)NNC(=O)c1ccc(Br)s1 | nt | -14 | 2 | 2 | nt | nt | nt | -11
COc1ccc(Br)cc1/C=N/n1c(C)nnc1C | nt | nt | nt | nt | i | -10 | -3 | 8
COc1ccccc1N1CC(O)=C(c2nc3ccccc3c(=O)[nH]2)C1=N | nt | nt | 6 | 0 | i | 4 | -1 | -14
COc1ccc(CC(=O)NCc2nnc(SCC(=O)Nc3nccs3)n2-c2ccccc2)cc1 | -19 | -4 | 5 | 3 | i | 1 | -10 | 5
O=C(NNC(=O)c1ccccc1C(=O)O)c1ccc(O)cc1 | -7 | -6 | 0 | 0 | i | 9 | 3 | -5
O=c1[nH]c(/C=C\c2ccc(O)cc2)nc(O)c1[N+](=O)[O-] | -5 | -12 | 1 | 0 | i | 13 | -5 | 2
Cc1ccsc1/C=N/NC(=O)C(N)=O | -16 | nt | 1 | 4 | nt | -2 | 2 | -5
COc1cccc(C(=O)N[C@@H](CCSC)c2nc3ccccc3[nH]2)c1 | -16 | nt | -3 | -4 | i | -8 | 6 | -16
S=c1[nH]nc(-c2ccncc2)n1/N=C/c1ccccc1Cl | 9 | -6 | 3 | 0 | i | 0 | -2 | -14
CCc1cc(=O)[nH]c(SCC(=O)Nc2ccc3c(c2)OCCO3)n1 | -22 | 9 | -1 | -1 | i | nt | nt | 8
CCOC(=O)c1nnn(-c2nonc2N)c1COc1ccc(F)cc1 | 20 | -22 | -8 | -14 | i | 16 | -2 | 22
O=C(Nc1cccc(F)c1)c1ccc(S(=O)(=O)NCC2CCCO2)cc1 (configuration not stated) | 38 | 4 | 5 | -10 | i | 0 | -1 | 9
Cc1[nH]c(=O)c(C#N)c(C)c1CCC(=O)NCc1cccc(C(F)(F)F)c1 | 7 | -13 | -2 | 1 | i | 3 | -3 | 7
O=C(CCS(=O)(=O)c1ccc2c(c1)NC(=O)CS2)NCc1cccs1 | 1 | -12 | nt | nt | i | 8 | 3 | 2
CCCOc1ccccc1NC(=O)/C=C/C(N)=O | 2 | nt | 2 | 3 | i | 5 | -7 | 12
COC(=O)[C@@H](NC(=O)N1CCN(C(=O)C2COc3ccccc3O2)CC1)C(C)C (some centres not stated) | 10 | -12 | 0 | 1 | i | -5 | -1 | -11
CCCCNC(=O)N1c2ccccc2CC1C (configuration not stated) | -5 | nt | 1 | 4 | i | -3 | -10 | -1
O=C(NCc1cccc(Cl)c1)c1ccc2nc(N3CCOCC3)sc2c1 | 15 | 5 | 0 | -4 | i | -6 | -5 | 7
CCOC(=O)c1[nH]c2ccc(OC)cc2c1NC(=O)C(C)N1CCSCC1 (configuration not stated) | nt | nt | nt | nt | i | -5 | -13 | nt
CCOC(=O)Cn1c(=NC(=O)C2COc3ccccc3O2)sc2cc(S(N)(=O)=O)ccc21 (configuration not stated) | -1 | -1 | 0 | -1 | i | 1 | 12 | -14
CCc1noc(C)c1C(=O)N(Cc1ccccc1)c1c(N)n(CCOC)c(=O)[nH]c1=O | 13 | -17 | 0 | 3 | i | nt | nt | -1
CN(C(=O)COC(=O)c1cc(F)c(F)cc1Cl)c1ccccc1 | 1 | -7 | -5 | -1 | i | 3 | -1 | -9
Cc1nc2ccc(NC(=O)c3cccs3)cc2c(=O)n1Cc1ccc(Cl)cc1 | nt | -17 | -3 | -23 | nt | -7 | 8 | 17
Cn1c(SCC(=O)Nc2cccc(Br)c2)nnc1-c1cc2ccccc2o1 | -55 | -6 | 1 | 2 | i | 1 | 3 | nt
CCOc1ccccc1N1CCN(C(=O)c2ccc(Cl)c(S(=O)(=O)N3CCCCC3)c2)CC1 | 42 | 7 | 2 | -23 | nt | nt | nt | nt
COc1ccccc1CNC(=O)CS(=O)Cc1nc(-c2ccc(OC)c(OC)c2)oc1C (configuration not stated) | -1 | 1 | -2 | 1 | i | 8 | -1 | -14
CC1(C(=O)OCC(=O)Nc2ncc(Cl)cc2Cl)CC1(Cl)Cl (configuration not stated) | -12 | -16 | -3 | 3 | nt | nt | nt | nt
Cc1ccc(NC2CCCN(C(=O)c3cccs3)C2)cc1C (configuration not stated) | 0 | -6 | nt | nt | i | 6 | -7 | nt
Cc1cc(C)cc(Oc2ccccc2C=O)c1 | nt | 1 | 11 | 8 | i | 0 | -1 | 12
Cc1ccc2c(c1)C(CCN)C(=O)N2Cc1ccccc1 (configuration not stated) | nt | 1 | -7 | 0 | i | 6 | 8 | 5
O=C(CSc1ccc(F)cc1)Nc1ccc(N2CCOCC2)c(Cl)c1 | 14 | -15 | 0 | -2 | i | 7 | -2 | -3
COc1cc(CO)ccc1OCC(=O)N1CCc2ccccc21 | -7 | 6 | 1 | 5 | i | 7 | -4 | -2
COc1ccc(OCC(=O)Nc2ccc3c(c2)nc(CCN2CCCCC2)n3C)cc1 | -1 | -6 | 2 | 2 | i | 0 | 11 | -1
O=C1CCCC2=C1C(c1ccco1)Nc1ccc(C(=O)c3ccccc3)cc1N2 (configuration not stated) | nt | -14 | -15 | 1 | i | 53* | 82* | 9
Cc1ccc(C(=O)Nc2nc3ccccc3[nH]2)cc1 | -77 | -86 | 7 | 3 | nt | -14 | 0 | 13
CS(=O)(=O)c1ccc(C(=O)Nc2ccc(N3CCCC3)cc2)c(Cl)c1 | -7 | -14 | 3 | 6 | i | 6.5* | 82* | -5 | eIF4H FP inh retest=53*;PABP FP inh retest=58*
O=C(CCC1CCCCC1)NCCS(=O)(=O)N1CCN(c2ccccc2F)CC1 | -5 | nt | 0 | -3 | i | nt | nt | 12
CC1(C)Cc2c(sc3nc(SCC(=O)O)[nH]c(=O)c23)CO1 | 3 | -5 | -2 | -1 | i | -3 | -4 | -3
Cc1ccc(Nc2c(-c3ccccc3)nc3cnccn23)cc1 | 6 | nt | 10 | 1 | i | 41 | -7 | 3
Cn1c(=O)c2c(nc(NCCCO)n2Cc2cccc(Br)c2)n(C)c1=O | 0 | 11 | 1 | -6 | i | -1 | 9 | -18
O=C(COC(=O)CN1CCSC1=O)Nc1ccc(F)cc1Cl | 1 | -7 | 1 | 1 | nt | nt | nt | -17
CCCCN(C=O)c1c(CC)nc2ccc(C(=O)N3CCN(c4ccccc4)CC3)cn12 | 4 | 3 | 9 | 2 | nt | nt | nt | nt
Cc1cccc(-c2cnn(-c3cccc([N+](=O)[O-])c3)c2N)c1 | -36 | nt | -1 | -3 | i | 8 | -12 | 8
N#Cc1ccc(CSc2nnc(COc3ccccc3)n2-c2ccccc2)cc1 | 75* | -6 | nt | nt | i | 2 | 4 | -8
COc1ccc(NC(=O)CCCSc2ccccc2)cc1 | 10 | nt | 3 | 2 | i | 10 | 8 | 0
Cc1ccccc1OCC(=O)Nc1ccc(Cc2ccncc2)cc1 | 19 | nt | -6 | -20 | nt | 2 | -7 | 36
CC1=NOC(=O)/C1=C/c1ccc2c(c1)OCO2 | 8 | nt | 0 | 1 | i | 27 | 3 | 12
COc1ccc(CCNC(=O)COc2ncnc3cc([N+](=O)[O-])ccc23)cc1 | 7 | nt | -3 | 1 | i | -9 | -4 | -17

The last 2 entries of the part above come first, to join the parts:
SMILES | HIV Env fusion | Yeast UUG start | MT1-MMP act inh | MT1-MMP act inh RFP | Rce1 inh | PABP FP inh | eIF4H FP inh | CSC inhib | others
CC1=NOC(=O)/C1=C/c1ccc2c(c1)OCO2 | 8 | nt | 0 | 1 | i | 27 | 3 | 12
COc1ccc(CCNC(=O)COc2ncnc3cc([N+](=O)[O-])ccc23)cc1 | 7 | nt | -3 | 1 | i | -9 | -4 | -17
Nc1ccc(C(=O)N/N=C/c2ccccc2)cc1 | -77 | -14 | 2 | 0 | i | -9 | -3 | 3
Cc1cc(NC(=O)COc2coc(CN3CCN(c4ccccc4F)CC3)cc2=O)no1 | -9 | -8 | 2 | 2 | i | nt | nt | -8
O=C(O)CCCCCNC(=O)c1ccc(Br)cc1 | -31 | -14 | 1 | 5 | i | 12 | 3 | -20
COc1ccc(CNC(=O)CCc2c[nH]c3ccccc23)cc1 | 9 | -20 | 0 | 1 | i | -3 | -7 | nt
O=C(O)c1ccc(CNCc2c(Cl)cccc2Cl)cc1 | -28 | -11 | 0 | -1 | i | 7 | 2 | 0
Cc1cc2c(cc1C)C(c1cccc([N+](=O)[O-])c1)CC(=O)N2 (configuration not stated) | 23 | nt | nt | nt | i | 2 | -4 | 20
Cc1nc2scc(C)n2c(=O)c1S(=O)(=O)Nc1ccc(N2CCOCC2)c(Cl)c1 | 8 | -27 | 5 | -23 | i | -13 | -3 | 1
Cc1ccc(S(=O)(=O)NCc2nc3ccccc3c(=O)n2N)cc1 | 16 | nt | 0 | -2 | i | 0 | 1 | nt
Cc1cccc(C(=O)N2CCCC(N3CCN(c4cccc(Cl)c4)CC3)C2)n1 (configuration not stated) | -19 | 1 | -1 | 0 | i | -2 | -11 | -3
Cc1ccc(SCC(=O)N(C)C2CCS(=O)(=O)C2)c(C)c1 (configuration not stated) | -3 | -13 | -3 | 2 | nt | nt | nt | 0
COc1ccc(-c2nnc3n2CCCCC3)cc1OC | -5 | -1 | -3 | 1 | i | 6 | -4 | -1
COc1cccc2cc(C(=O)N3CCN(c4ccccn4)CC3)c(=O)oc12 | nt | -11 | 2 | 1 | i | -1 | -4 | -11
COc1ccc(N2CCN(S(=O)(=O)c3ccc(OC)c(C(=O)N4CCOCC4)c3)CC2)cc1 | -2 | 7 | -2 | -2 | i | -3 | 3 | -2
Nc1nonc1C(=O)N/N=C/c1ccc(-c2cccc(C(=O)O)c2)o1 | nt | nt | nt | nt | i | -12 | 55* | -8 | eIF4H FP inh retest=89*;PABP FP inh retest=46
COc1ccc2nc(NC(=O)/C=C/c3ccc4c(c3)OCO4)sc2c1 | 1 | nt | nt | nt | i | -2 | 6 | 1
Cc1ccc(C)c(S(=O)(=O)NCCOc2nc(NC(C)C)nc(NC(C)C)n2)c1 | nt | nt | -4 | 1 | i | 0 | -2 | nt

Some of the compounds tested; rates above refer to the full screens.
